CBX7 inh – CBX7 chromodomain binding inhibitors, primary screen, biochemical, AlphaScreen; AlphaScreen His6-CBX7 / biotin-H3K27me3 peptide binding; hits give low values; AID 1224903, 2016; Chromobox protein homolog 7 (Homo sapiens), O95931; actives 1.1% (n = 66,000); normalised signal (fraction of DMSO) (test concentration not listed); in the data active = normalised signal below about 0.5;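 also: 100 nL library stock added to about 20 µL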
Target sequence (O95931 whole entry, looked up): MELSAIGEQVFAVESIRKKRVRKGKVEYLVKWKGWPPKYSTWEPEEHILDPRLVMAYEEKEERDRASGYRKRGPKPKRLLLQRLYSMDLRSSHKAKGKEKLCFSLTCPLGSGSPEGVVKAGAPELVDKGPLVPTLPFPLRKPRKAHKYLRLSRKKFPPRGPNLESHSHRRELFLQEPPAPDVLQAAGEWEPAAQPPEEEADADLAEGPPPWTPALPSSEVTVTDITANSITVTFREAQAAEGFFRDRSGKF
CBX7 inh z-score – also measured in CBX7 inh; calls as there; z-score; measured here: z-score of CBX7 signal; some inactives read as strong as hits; reference of the scale not given here;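 same signal on another scale; lower means less binding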
Starred values were filed as active, the others as inactive. A portion of the library, so the mix of outcomes need not match the whole.

Below each SMILES: CBX7 inh	CBX7 inh z-score
> Cc1c(Cl)cccc1NS(=O)(=O)c1ccc2c(c1)n(C)c(=O)c(=O)n2C
 : 1	0.4
> Cc1cccc(-n2c(CCC(=O)O)ccc2-c2ccc(F)cc2)c1C
 : 1	0.26
> O=C(CN1C(=O)COc2ccccc21)N1CCc2ccccc2C1
 : 1	1
> CCCCc1c2c(nn1-c1cc(Cl)ccc1OC)CC(c1ccccc1)CC2=O (stereo not drawn)
 : 0.66	-3.3
> Cc1ccc(NC(=O)COc2ccccc2)cc1-c1nc2ncccc2o1
 : 1.1	1.5
> CC1CCC(NC(=O)C2C3C=CC4(CN(Cc5ccccc5Cl)C(=O)C24)O3)CC1 (stereo not drawn)
 : 1	0.42
> Cc1nc(N2CCN(Cc3ccccc3)CC2)c2c3c(sc2n1)CCCC3
 : 0.91	-2.3
> Cc1ccc(-c2csc(NC(=O)CCCOc3ccc(Cl)cc3)n2)cc1
 : 1.2	1.7
> CCOC(=O)c1[nH]c(=O)c2ccccc2c1O
 : 1	0.48
> CCc1ccc2nc(N3CCC(C(=O)NCCN(CC)CC)CC3)sc2c1
 : 1.6	6.5
> Cc1cc2c(cc1C)C(c1ccncc1)CC(=O)N2 (stereo not drawn)
 : 1	-0.0027
> Cc1cc(N2CCN(c3ccccc3F)CC2)nc2cc(O)ccc12
 : 1	0.36
> CCc1nc(NCCN(CC)CC)c(C#N)c2c1COC(C)(C)C2
 : 1.1	0.1
> COc1ccc(C2C(=O)N(C3CCCCC3)CC(=O)N2Cc2ccccc2)cc1 (stereo not drawn)
 : 1.1	0.37
> CC(NC(=O)c1ccc(F)cc1)C(c1cccs1)N1CCN(C)CC1 (stereo not drawn)
 : 1	0.28
> Cc1nc2cc(C(=O)NCCN3CCOCC3)ccc2n1-c1ccc(Br)cc1
 : 1	-0.064
> CN(C1CCCCC1)S(=O)(=O)c1ccc2c(c1)N(CC(=O)N1CCCC1)C(=O)CS2
 : 1	0.057
> COc1ccc(CCC(=O)Nc2ccc(-c3noc(Cc4ccc(Cl)cc4)n3)cc2)cc1
 : 1	1.4
> O=C(c1cc(-c2ccc(Br)cc2)on1)N1CCc2ccccc2C1
 : 1	1.3
> CCc1nc2c(cnn2-c2ccc(C)cc2)c(=O)n1-c1ccc(OC)cc1
 : 0.89	-2.3
> Cc1ccc2c(c1)-c1c(cnn1CC(=O)N1CC(C)CC(C)C1)CO2 (stereo not drawn)
 : 1	0.022
> Cc1cccc(NC(=O)CN2C(=O)CC(c3ccccc3)Sc3ccccc32)c1 (stereo not drawn)
 : 0.95	-0.85
> Fc1ccc(-c2[nH]c(-c3cccs3)nc2-c2ccccc2)cc1
 : 0.89	-1.7
> CCOc1ccccc1N(CC)C(=O)c1cc2c(s1)-c1c(C)cccc1OC2
 : 1.2	5.5
> CCC(=O)NCCc1nc2ccccc2n1Cc1ccc(Cl)cc1
 : 1.2	1.8
> COCCNC(=O)c1cc2c(n(-c3ccc(Cl)cc3)c1=O)CCCC2=O
 : 1.1	0.49
> CCCNC(=O)c1ccc2c(c1)N(Cc1c(F)cccc1Cl)C(=O)CS2
 : 1.1	0.25
> CCCC1=Nc2cc(C(=O)NC3CCCCC3)ccc2Sc2ccc(C)cc21
 : 0.75	-2.7
> CC(C)c1ccc(NS(=O)(=O)c2ccc3c(c2)CCN3C(=O)C2CCC2)cc1
 : 0.96	-1.2
> Cc1ccc(-c2cc(C(=O)NCCCN(C)C)c3ccccc3n2)cc1C
 : 1	-0.048

An excerpt from above in order of their number in CBX7 inh z-score, highest first.
SMILES | CBX7 inh z-score
CCCNC(=O)c1ccc2c(c1)N(Cc1c(F)cccc1Cl)C(=O)CS2 | 0.25
CCc1nc(NCCN(CC)CC)c(C#N)c2c1COC(C)(C)C2 | 0.1
CCCCc1c2c(nn1-c1cc(Cl)ccc1OC)CC(c1ccccc1)CC2=O (stereo not drawn) | -3.3

Remaining list, next part.
Below each SMILES: CBX7 inh	CBX7 inh z-score
> CCOC(=O)C1CCN(C(=O)CCC(=O)Nc2ccc3nc(N4CCCCC4)cc(C)c3c2)CC1
 : 0.53	-20
> O=C(Cc1c(C(=O)O)[nH]c2ccccc12)Nc1ccc2c(c1)OCO2
 : 0.97	-0.71
> Cn1c(/C=C/c2cn(Cc3ccccc3)c3ccccc23)nc2ccccc2c1=O
 : 1.1	0.45
> COCCN1Cc2cccc(C(=O)Nc3ccc(Cl)cc3)c2C1=O
 : 1	0.11
> COc1cccc(N2C(=O)CC(N3CCN(C(c4ccccc4)c4ccccc4)CC3)C2=O)c1 (stereo not drawn)
 : 0.94	-0.83
> COc1cccc(-c2nn(C)c3sc(C(=O)NC4CC4)cc23)c1
 : 1	0.52
> CN(CCCNC(=O)c1csc2c1CCCCC2)Cc1ccccc1
 : 0.94	-1.5
> COc1ccc(OC)c(-c2cc(C(=O)Nc3cccc(Cl)c3C)no2)c1
 : 1	-0.07
> CCN(c1cccc(C)c1)S(=O)(=O)c1ccc2[nH]cc(C(=O)NCCCOC)c(=O)c2c1
 : 1	0.74
> Cc1ccc(-c2nc3c(cnn3-c3ccccc3)c(=O)n2-c2cccc(C)c2)cc1
 : 0.87	-5
> COc1ccc(CNC(=O)c2nn3c(C(F)(F)F)cc(-c4ccc(C)cc4)nc3c2Cl)cc1
 : 1.1	1
> CC(C)NC(=O)C1CC(=O)N(c2ccc(F)c(Cl)c2)C1 (stereo not drawn)
 : 1	0.22
> COc1ccccc1NC(=O)Cn1cc(S(=O)(=O)c2ccccc2)c(=O)c2ccccc21
 : 0.82	-2.9
> C=CCn1c(C(C)NC(=O)c2ccc(Cl)cc2)nc2ccccc21 (stereo not drawn)
 : 1	-0.042
> CCCN1Cc2cccc(C(=O)Nc3ccc(OC)cc3)c2C1=O
 : 0.97	-0.42
> COc1ccc(-c2nn(C)c3sc(C(=O)NCCN(C)C)cc23)cc1OC
 : 1	-0.13
> Cc1oc(-c2ccc(Cl)cc2)nc1CN1CCCC(C(=O)NCCN(C)C)C1 (stereo not drawn)
 : 0.88	-1.5
> Cc1ccc(Nc2c(-c3ccc(Cl)cc3)nc3cc(C)ccn23)cc1
 : 1	0.021
> COCCNC(=O)c1cc(-c2ccccc2OC)on1
 : 1.1	2.3
> CCC(=O)Nc1ccc(S(=O)(=O)Nc2cc(C)on2)cc1
 : 1	-0.024
> COc1nnc(-c2ccc(C)c(S(=O)(=O)NC3CCCCC3)c2)c2ccccc12
 : 0.82	-4
> C=CCN(CC=C)S(=O)(=O)c1ccc(C(=O)Nc2nnc(-c3ccc(Cl)s3)o2)cc1
 : 0.37*	-7.2*
> CCc1ccc2[nH]cc(S(=O)(=O)c3ccccc3)c(=O)c2c1
 : 1.1	3.6
> Cc1cccc2nc(-c3ccc(Cl)cc3)c(Nc3ccc4c(c3)OCCO4)n12
 : 0.81	-3.1
> CCOc1cc2c(cc1OCC)C(c1cccc(OC(F)(F)F)c1)NCC2 (stereo not drawn)
 : 0.81	-2.9
> Cc1cc(C)cc(NC(=O)C2CCN(c3nnc(-n4cccc4)s3)CC2)c1
 : 1	0.55
> CCCNC(=O)CN1C(=O)CSc2ccc(S(=O)(=O)N(CC)CC)cc21
 : 1	0.55
> O=C(Nc1ccc(F)c(Cl)c1)C1CCN(S(=O)(=O)c2cccnc2)CC1
 : 1	0.88
> Cc1ccc2c(c1)N(CCC(=O)NC(C)c1ccccc1)C(=O)C(C)O2 (stereo not drawn)
 : 0.92	-1
> Cc1oc(-c2ccccc2)nc1C(=O)O
 : 0.97	-0.71

Further records
compound,CBX7 inh,CBX7 inh z-score
COc1ccc(CCNC(=O)c2cc3ccccn3n2)c(OC)c1,1,1.1
CCOC(=O)c1cnc2ccccc2c1Nc1ccc2c(c1)OCCO2,0.55,-4.8
Cc1[nH]c2ccc(OCc3ccccc3)cc2c1CCNC(=O)c1cccc(Br)c1,0.65,-6.4
Cc1ccc2oc(-c3cc(NC(=O)c4oc5ccccc5c4C)ccc3Cl)nc2c1,1,-0.032
N#Cc1c(-n2ncnc2-c2ccccc2)sc2c1CCCC2,0.68,-9
O=C(Cn1cnc2scc(-c3ccccc3)c2c1=O)Nc1cccc2ccccc12,1.1,1.4
O=C(NCCN1CCOCC1)c1cc(-c2cccc(Cl)c2)on1,0.86,-2
COc1ccc(C(=O)Nc2c3c(nn2-c2ccc(Oc4ccccc4)cc2)CSC3)cc1,0.8,-3.5
CCN(CC)S(=O)(=O)c1cc(-c2nnc(-c3ccc(Br)cc3)o2)ccc1Cl,1.2,1.3
COCCNC(=O)c1cc(Nc2ccc(C)cc2C)nc2ccccc12,0.93,-1
CCn1c(SCC(=O)NCc2ccccc2)nnc1-c1c[nH]c2ccccc12,1.1,0.59
O=C(NCCN1CCOCC1)c1ccc2c(c1)N(Cc1ccccc1)C(=O)CS2,0.93,-0.88
CCSc1oc(-c2cccs2)nc1S(=O)(=O)c1ccccc1,0.98,-0.041
CCCn1c(-c2ccc(OC)cc2)nc2ccccc21,0.98,-0.75
COc1ccc(N2CCN(CC(O)COc3cc(C)ccc3C)CC2)cc1 (stereo not drawn),0.71,-3.1
O=C(CCN1CCC(O)(c2ccc(F)cc2)C1)c1ccc2c(c1)OCCO2 (stereo not drawn),1.1,1.7
Cc1ccc(OCC(=O)Nc2ncc(Cc3ccccc3)s2)cc1,1.1,0.14
Cc1onc(-c2ccccc2)c1C(=O)N1CCN(c2ccccc2)CC1,0.92,-0.17
Cc1cc(NC2CCCCC2)nc(-c2ccccc2O)n1,0.97,-0.62
CCC1Oc2ccccc2N(CC(=O)NCc2ccc(F)cc2)C1=O (stereo not drawn),1,1.2

Structural class, the entries above containing an NH in an aromatic ring.
compound,CBX7 inh,CBX7 inh z-score
CCOC(=O)c1[nH]c(=O)c2ccccc2c1O,1,0.48
Fc1ccc(-c2[nH]c(-c3cccs3)nc2-c2ccccc2)cc1,0.89,-1.7
O=C(Cc1c(C(=O)O)[nH]c2ccccc12)Nc1ccc2c(c1)OCO2,0.97,-0.71
CCN(c1cccc(C)c1)S(=O)(=O)c1ccc2[nH]cc(C(=O)NCCCOC)c(=O)c2c1,1,0.74
CCc1ccc2[nH]cc(S(=O)(=O)c3ccccc3)c(=O)c2c1,1.1,3.6
Cc1[nH]c2ccc(OCc3ccccc3)cc2c1CCNC(=O)c1cccc(Br)c1,0.65,-6.4
CCn1c(SCC(=O)NCc2ccccc2)nnc1-c1c[nH]c2ccccc12,1.1,0.59

(further entries)
compound,CBX7 inh,CBX7 inh z-score
CC1CCC(NC(=O)c2ccc3c(c2)N(Cc2ccccc2)C(=O)c2ccccc2S3=O)CC1 (stereo not drawn),0.91,-2.1
Cc1ccc(-c2noc(CCC(=O)Nc3ccc(F)cc3Cl)n2)cc1,1,0.048
Nc1nonc1-c1nc2ccccc2n1Cc1cccc(Cl)c1,0.99,-0.067
O=C(Nc1nc(-c2ccncc2)cs1)c1cccc(Oc2ccccc2)c1,0.92,-1.5
O=C1CC(c2ccc(F)cc2)Cc2nc(N3CCOCC3)ncc21 (stereo not drawn),1.1,1.4
COc1cc2c(cc1OC)C(C(=O)NCCN(C)C)C(c1ccccc1F)N(C)C2=O (stereo not drawn),1.1,1.1
Clc1c(CSc2nc3ccccc3s2)nc2ccccn12,0.74,-4.7
O=S(=O)(Nc1nc2ccccc2nc1NCc1ccccc1)c1ccc(Cl)cc1,0.73,-7.7
CC(NC(=O)C(=O)NCc1ccccc1Cl)C(c1cccs1)N1CCN(c2ccccc2)CC1 (stereo not drawn),1.1,0.66
Cc1ccc(N2C(=O)c3ccccc3C2Nc2ccc(C)cc2Cl)nc1 (stereo not drawn),0.74,-3.4
CC1CC(C)CN(CCCNC(=O)CN2C(=O)COc3ccc(S(=O)(=O)N4CCCC4)cc32)C1 (stereo not drawn),1,-0.063
CC(=O)N1CCc2cc(Br)cc(S(=O)(=O)Nc3ccc(C)cc3C)c21,0.98,-0.5
CCOC(=O)c1sc2ncnc(NCCc3ccc(OC)c(OC)c3)c2c1C,0.82,-5.3
Cc1ccc(C)c(-n2c(Cc3cc(=O)[nH]c(=O)[nH]3)nnc2SCc2c(F)cccc2Cl)c1,1.1,0.18
CC1CCCCC1NC(=O)c1ccc2c(c1)N(Cc1c(F)cccc1Cl)C(=O)CS2 (stereo not drawn),1.1,0.13
O=C(CC1Oc2ccccc2NC1=O)NCc1cccnc1 (stereo not drawn),1,0.21
CN(C)S(=O)(=O)c1ccc(C(=O)Nc2nnc(-c3ccc(Cl)s3)o2)cc1,0.22*,-13*
CCOC(=O)N1CCN(c2c(NCCc3ccc(C)cc3)c(=O)c2=O)CC1,0.84,-4.6
COc1ccc2cc(CCNC(=O)c3ccc(F)cc3)c(=O)[nH]c2c1,1.2,1.1
Cc1ccc(S(=O)(=O)Nc2nc3ccc(C(=O)N4CCOCC4)cc3s2)cc1,1.1,0.86
Cc1nc(-n2cnc3cc(C)c(C)cc32)c2c3c(sc2n1)CCC3,0.99,-0.3
COc1ccccc1CC(=O)Nc1ccc(-c2noc(COc3cccc(C)c3C)n2)cc1,1.1,1.1
CCCCCn1c(=O)[nH]c2cc(C(=O)NCCCN3CCCC3=O)ccc2c1=O,1,0.59
CCN(CC)c1ccc(-c2nc3cc(NC(=O)c4ccc(OC)c(OC)c4)ccc3o2)cc1,1.1,3
CCCOc1ccccc1NC(N)=Nc1nc(C)cc(C)n1,0.81,-2
CC1CCCCN1CCCNC(=O)c1cc(-c2ccncc2)nc2ccccc12 (stereo not drawn),1.1,0.72
COc1cccc(NC(=O)Nc2ccc(Cc3ccncc3)cc2)c1,1,0.66
O=C(Nc1cccc(Cl)c1)C1CCN(S(=O)(=O)c2cccs2)CC1,1,0.85
Cc1cc(N2CCOCC2)nc2ccc(NC(=O)CCC(=O)NCCc3ccc(Cl)cc3)cc12,1,0.079
CCCCOc1ccc(OCCCC)c2c1nc(-c1ccccc1NC)c(=O)n2C,0.86,-2
Cc1ccc(C)c(CN2C(=O)c3ccccc3S(=O)c3ccc(C(=O)NCC4CCCO4)cc32)c1 (stereo not drawn),1.1,0.89

Screening data as filed in PubChem BioAssay.
